# eIF4H inh – human eIF4H binding inhibitors, primary screen, translation initiation inhibitor project, biochemical, uHTS, fluorescence polarization. actives 0.94% (n = 290,000). inhibition, % at 35 µM. eIF4H fluorescence polarization binding assay. AID 2012, 2009;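 active = 50% or more with normal probe brightness, or confirmed in later tests; inconclusive = above 50% with abnormal brightness, or retests that disagree; inactive = below 50% or failed in later tests; about a fifth of its hits are not listed in these tables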;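 also: calls also rest on retests at 20 µM and on dose response follow-up; 0% = protein and probe with vehicle and 100% = probe without protein; strong numbers were not always called active; many hits fall short of the cut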
# Rce1 inh – yeast Rce1p protease inhibitors, primary screen, biochemical, fluorescence, cell-free homogeneous; CAAX prenyl protease 2 (Saccharomyces cerevisiae (strain ATCC 204508 / S288c)), Q03530; yeast membranes, quenched prenylated peptide cleavage fluorescence; calls only; actives 0.27% (n = 290,000); AID 2563, 2010;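 active = fall in fluorescence gain of 50% or more versus controls, with final raw signal at or below 3038400; inconclusive = same 50% fall but final raw signal above 3038400; inactive = fall in fluorescence gain under 50%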;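 also: plate controls were neutral control wells for no effect and wells lacking membranes for full effect; tested at 10 µM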
# Target sequence (Q03530 whole entry, looked up): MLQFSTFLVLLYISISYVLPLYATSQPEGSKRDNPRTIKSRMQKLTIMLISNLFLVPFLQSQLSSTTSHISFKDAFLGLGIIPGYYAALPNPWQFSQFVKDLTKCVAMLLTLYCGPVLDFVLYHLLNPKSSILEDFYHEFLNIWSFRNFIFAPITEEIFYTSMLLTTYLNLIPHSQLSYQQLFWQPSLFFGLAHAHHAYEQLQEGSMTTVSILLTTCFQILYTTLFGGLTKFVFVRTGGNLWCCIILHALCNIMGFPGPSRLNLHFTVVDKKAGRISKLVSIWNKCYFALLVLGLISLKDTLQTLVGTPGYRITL
# MT1-MMP act inh – blockers of MT1-MMP proenzyme processing, primary screen, HT1080 RFP-PRO-GFP cells, GFP/RFP fluorescence; Matrix metalloproteinase-14 (Homo sapiens), P50281; GFP/RFP ratio fluorescence, overnight; percent of plate control window, DMSO zero; GFP/RFP ratio change, % at 20 µM; actives 0.061% (n = 360,000); AID 651647, 2012;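 active = GFP/RFP ratio change of at least 30% with cell ATP level not reduced by more than half and red fluorescence within 50% of control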; also: strong numbers were not always called active
#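 Assay system – RFP-PRO-GFP reporter HT1080 cells · Compound dosing – single dose of 20 µM compound, 1% DMSO final · Incubation – overnight compound exposure at 37 °C · Measure – GFP/RFP fluorescence ratio · Benchmarks – DMSO wells and RFP-L50D-GFP cells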
# CSC inhib – cancer stem cell viability inhibitors, primary screen, luminescence; actives 1.1% (n = 300,000); inhibition, % at 7.5 µM; cancer stem cell-like cells viability;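 active = mean at 75% or more and at least half the replicates too; inconclusive = mean and replicates disagree; tested in HMLE shEcad cells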;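 also: 0% = median of negative and 100% = median of positive control wells; the first replicate is given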
# PABP polyA inh – PABP poly(A) RNA binding inhibitors, primary screen, biochemical, fluorescence polarization, uHTS. Polyadenylate-binding protein 1 (Homo sapiens), P11940. inhibition, % at 35 µM. actives 1% (n = 290,000). AID 2014, 2009;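 active = 50% or more with normal probe brightness, or confirmed in later tests; inconclusive = above 50% with abnormal brightness, or retests that disagree; inactive = below 50% or failed in later tests; about a fifth of its hits are not listed in these tables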;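 also: calls also rest on retests at 20 µM and on dose response follow-up; controls were probe without protein and protein plus probe with vehicle; some compounds called inactive have numbers as strong as hits; many hits fall short of the cut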
# Yeast UUG start – modulators of yeast start codon fidelity, primary screen, whole organism, S. cerevisiae, single point, plate reader | S. cerevisiae UUG-firefly luciferase reporter, luminescence/redox ratio | activity score, % at 18.7 µM | actives 0.13% (n = 350,000) | AID 602363, 2012;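 active = replicate mean at a twofold rise or more, about +100% in these data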;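 also: firefly luciferase made from a UUG start codon reports start codon fidelity; reporter light over untreated wells divided by growth signal over untreated wells; some hits fall short of that in this replicate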
# Env fusion inh – inhibitors of HIV-1 Env-driven cell-cell fusion, primary screen, HeLa-JRFL effector, CEM21 target cells, luciferase | AID 651610, 2012 | inhibition, % at 12.3 µM | actives 1.1% (n = 360,000);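 active = mean replicate inhibition score of at least 50 and every replicate individually at or above 50; inconclusive = only one of the two criteria met; inactive = mean below 50 and not all replicates reaching 50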;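 also: 0% = plate neutral controls and 100% = maraviroc near 300 nM; one replicate is shown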
# eIF4H inh retest – second read-out of eIF4H inh, no call of its own (marks repeat the call); inhibition, %; compound at 20 µM; confirmation average;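 mean of two retest wells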
# PABP polyA inh retest – further read-out of PABP polyA inh, marked with its call; inhibition, %; compound at 20 µM; confirmation repeats;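 mean of two retest wells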
# MT1-MMP act inh RFP – further read-out of MT1-MMP act inh, marked with its call; RFP signal change, %; measured here: RFP expression control read;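 0 = vehicle wells; hits needed this value within 50% of zero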
# * marks the source's active call; other numbers are inactive results; i = inactive; ? = inconclusive; / = not tested or not shown; & = joins results of further samples; [ ] = dose if it differs, or a comment. Only part of the results is shown. The share of hits here may be higher or lower than overall.
SMILES,eIF4H inh,Rce1 inh,MT1-MMP act inh,MT1-MMP act inh RFP,CSC inhib,PABP polyA inh,Yeast UUG start,Env fusion inh,others
CCc1nc2ccccc2c(C(=O)O)c1C,7,i,6,3,-6,-10,-8,10,
Cc1ccc(-n2c(C)nnc2SCC(=O)NC2CC2)cc1,-2,i,1,1,-3,8,-14,-20,
Cc1cc(NC(=O)c2cccc(S(=O)(=O)N3CCCCCC3)c2)n(-c2ccccn2)n1,-7,i,-4,-8,-3,-8,-16,/,
COc1cc(S(=O)(=O)NCCCN2CCOCC2)ccc1Cl,-2,i,2,-3,-5,-7,9,-23,
Cc1c(C(=O)NCc2ccccn2)oc2ccccc12,-6,i,2,-1,0,-8,-13,/,
CC1CCC(NC(=O)CN(C)S(=O)(=O)c2ccc3c(c2)c(=O)n(C)c(=O)n3C)CC1 (centres undefined),-7,i,1,1,-5,4,-4,-2,
Cc1nc(N2CCCCC2)[nH]c(=O)c1CN(C)N=O,/,/,-6,0,/,/,1,-18,
Cc1ccc(O)c(/C=N/NC(=O)CN2CCCC2)c1,-1,i,6,4,11,3,-13,-8,
Cc1noc(C)c1S(=O)(=O)N(C)C[C@H]1Oc2ccc(NC(=O)C3CC3)cc2C(=O)N([C@H](C)CO)C[C@@H]1C,/,/,7,1,/,/,10,14,
CCCCC1OC23CCCCC2C(C#N)(C#N)C1(C#N)C(=N)O3 (centres undefined),?,i,-2,20,-8,-6,-8,/,
CNC(=S)N/N=C(\C)c1ccc(C)c(C)c1,-3,i,2,1,-1,-3,/,-302,
Cc1nc2ccccc2c2c1C(=O)N(CCC1=CCCCC1)C2=O,-13,i,/,/,/,5,/,/,
CC(C)CN(C(=O)c1ccc(N2CCCC2=O)cc1)c1c(N)n(Cc2ccccc2)c(=O)[nH]c1=O,/,/,0,2,0,/,-20,/,
CCC(Cc1ccccc1)OC(=O)c1ccccc1C(=O)O (centres undefined),/,/,-5,-2,/,/,18,-3,
Cc1ccc(NC(=S)N2CCC(N(C)CC3CCCO3)CC2)cc1C (centres undefined),4,i,0,3,/,-3,-18,-6,
CC(=O)N(c1ccc2oc(=O)sc2c1)S(=O)(=O)c1ccc(C(=O)O)cc1,12,i,-2,1,-7,12,-6,-10,
CCOC(=O)C1(C)CCCN(C(=O)c2ccccc2C(F)(F)F)C1 (centres undefined),/,/,-3,1,/,/,-13,-57,
CCCCN1C(=O)C(NC(=O)c2cccnc2)(C(F)(F)F)C2=C1CC(C)(C)CC2=O (centres undefined),3,i,1,2,10,-4,-10,12,
CCOc1ccc(NC(=O)COc2ccc(S(=O)(=O)N3CCOCC3)cc2)cc1,/,/,3,1,2,/,-19,1,
Cc1cc(NC(=O)c2cc(-c3ccncc3)nc3c(C)cccc23)no1,-1,i,-6,-16,61,3,-24,/,
COc1ccc(C(=O)Nc2nnc([C@@H]3C[C@H](O)[C@@H](CO)O3)s2)cc1,/,/,0,5,/,/,-6,14,
CC1CCCC(C)N1/N=C/c1cccc([N+](=O)[O-])c1 (centres undefined),-3,i,-3,-3,-13,-20,2,-6,
CCOc1ccc(-n2c(=S)sc3c(=O)n(-c4ccc(F)cc4)c(SCC(=O)O)nc32)cc1,-9,i,-3,7,/,-6,-17,8,
CCOC(=O)C1=C(CNCCc2ccc(Cl)cc2)NC(=O)NC1c1cccc([N+](=O)[O-])c1 (centres undefined),-4,i,3,-4,-2,-11,-11,17,
COc1ccc(CNC(=O)CN(C(=O)c2csnn2)c2ccccc2F)cc1,-7,/,-2,2,-8,0,-14,-16,
COc1ccc(OCC(=O)OC(C)CN2CCOCC2)cc1 (centres undefined),2,i,2,2,-2,0,-10,10,
Cc1ccc(-c2ccc(=O)n(CC(=O)NCc3ccc(F)cc3)n2)cc1,-5,i,1,0,-3,1,-7,8,
COc1cc(/C=C(/C#N)c2ccccc2F)ccc1OCc1ccccc1,0,i,-4,-4,116*,-8,/,-12,
O=C(COC(=O)CCCSc1nc2ccccc2[nH]1)Nc1ccc(Oc2ccccc2)cc1,-15,i,2,-1,/,-3,/,-7,
Cc1ccc(Cl)cc1N1CCN(C(=O)c2cn(C)c(=O)c3c2c2ccccc2n3C)CC1,-14,i,-20,-24,88*,4,-17,/,
Cc1cnc(C2OCCO2)c2cccc(N)c12,/,/,1,0,/,/,-20,-1,
CN(C)c1ncc(S(=O)(=O)c2ccc(Cl)cc2)c(-c2ccccc2)n1,-9,i,0,-1,10,0,3,-28,
COc1ccc(Cl)c2sc(N3CCN(C(=O)c4ccco4)CC3)nc12,/,i,-4,-7,-5,/,/,13,
COc1cccc(NC(=S)N2CCC(Cc3ccccc3)CC2)c1,5,i,2,1,9,-4,-26,-26,
COc1ccc(-c2cc(NC=O)c3ncc(-c4cccc(C(=O)N(C)C)c4)n3c2)c(OC)c1,/,/,-2,1,/,/,-7,-361,
O=C(CSc1nc2ccncc2[nH]1)Nc1ccccc1C(F)(F)F,1,i,1,-5,2,-8,-14,/,
Cc1cc(C)c(C#N)c(N2CCN(c3ccc(F)cc3)CC2)n1,7,i,-2,-4,7,2,-12,-15,
Cc1ccc(NC(=O)CN(C)C(=O)c2ccccc2Sc2ccccc2C#N)cc1,/,i,-5,-2,-6,/,-17,/,
CCCCNc1ccc(C(CC(N)=O)NC(=O)Cc2ccc(Br)cc2)cc1[N+](=O)[O-] (centres undefined),41,i,6,2,7,10,-17,-28,
COc1ccc([C@H]2C=C(C(=O)O)O[C@@H](OCCCCO)C2)cc1,4,i,2,4,-11,2,-15&-11,-8[16.7 µM],
Cc1ccc(S(=O)(=O)N(CC(=O)N/N=C/c2cccc(Cl)c2)c2cccc3cccnc23)cc1,-10,i,-1,0,-7,1,-37,/,
COc1ccc(Cn2c(CCC(=O)NCCC(C)C)nc3ncccc3c2=O)cc1,-5,i,-4,-3,-2,-5,/,15,
CN(C)c1ccc(-c2nn3c(-c4ccc(Cl)cc4)nnc3s2)cc1,2,i,-6,-2,/,3,-24,8,
O=C(C1CC(=O)N(C2CCCCC2)C1)N1CCN(c2ccccc2)CC1 (centres undefined),-15,i,3,4,-3,4,-27,-11,
C[C@H]1CN([C@@H](C)CO)C(=O)Cc2cc(NC(=O)CCC(F)(F)F)ccc2O[C@H]1CN(C)S(=O)(=O)c1ccc(F)cc1,/,/,1,-10,45,/,-4&5,/,
Cc1cccc(C(=O)Nc2onc(C)c2C#N)c1,-3,i,0,-3,-3,2,-11,-26,
Cn1c(=O)n(C)c2cc(NC(=O)C(F)(F)F)ccc21,-7,i,4,4,0,5,17,/,
CCOc1c(CNCCCSc2nc(C)cc(C)n2)cccc1OC,-10,i,-2,1,2,14,-7,7,
Cc1cc2nc(-c3ccccc3)cc(=O)n2[nH]1,0,i,5,3,-16,-6,-2,-14,
COc1ccc(CN2C(=O)c3cccnc3C2=O)cc1S(=O)(=O)N1CCOc2ccc(Cl)cc21,0,i,0,7,-10,-8,-18,1,
Cc1sc(NC(=O)CN2CCCC2)nc1-c1ccc2c(c1)CCN2C(=O)c1ccc(F)cc1,5,i,3,-2,25,16,9,6,
O=C(O)c1ccc(N2C(=O)CC(N3C(=O)/C(=C/c4ccc(Cl)cc4)SC3=S)C2=O)cc1 (centres undefined),4,i,2,2,11,2,-1,5,
CCC(C)[C@H](NC(=O)[C@@H]1Cc2ccccc2CN1)C(=O)Nc1ccc2c(c1)OCO2 (some centres undefined),107,i,-3,-3,13,10,-15,-15,eIF4H inh retest=5;PABP polyA inh retest=5
COc1ccc(CCNS(=O)(=O)c2ccc(Br)cc2)cc1,-6,i,2,3,10,-9,-11,3,
Cc1sc2nc(C3CC3)nc(SCC(=O)N3CC(=O)Nc4ccccc43)c2c1C,4,i,-15,-13,-1,-5,-12,45,
COc1ccc(CCNC(=O)c2cccs2)cc1,-13,i,3,-6,2,1,-10,-31,
O=C(CSc1nnc(NC(=O)C2CC2)s1)Nc1cccc(F)c1,2,i,-1,-6,3,-6,-35,-4,
CCSc1nc(-c2ccc(OC)cc2)ccc1C#N,-2,i,-5,-6,14,0,-24,1,
COc1ccc(-c2noc(CCCC(=O)NC3CCCCC3)n2)cc1,3,i,-4,-15,5,0,16,23,
Cc1ccc(C)c(OCC(O)CN2CCC(C)CC2)c1C (centres undefined),10,/,-1,-1,-12,-1,0,/,
# More entries follow.
SMILES,eIF4H inh,Rce1 inh,MT1-MMP act inh,MT1-MMP act inh RFP,CSC inhib,PABP polyA inh,Yeast UUG start,Env fusion inh,others
CN(C)S(=O)(=O)Nc1cccc(-c2cn3c(n2)SCC3)c1,-11,i,2,4,-12,13,-30,3,
NC(=O)C1(N2CCCCC2)CCN(C(=O)c2cccs2)CC1,-12,i,-3,2,9,-1,-22,3,
CC(=O)c1cc(CN2CCC(N3CCC(C(=O)N4CCCC4)CC3)CC2)cs1,5,i,3,4,-3,0,/,12,
CC(=O)c1ccc(NC(=O)COC(=O)Cn2cnc3ccccc32)cc1,/,/,0,0,0,/,-19,/,
Cc1nnc(NC(=O)c2ccc3ccccc3c2)o1,3,/,9,4,8,-14,-31,-22,
O=C(Nc1cc(Cl)cc(Cl)c1)C1CCCC1,10,i,0,0,13,0,-8,-43,
Cc1ccc(C(=O)Oc2oc(-c3ccccc3)nc2C=Nc2ccc(N(C)C)cc2)cc1,5,i,-1,1,-16,1,/,-27,
CCn1c(COc2cccc(OC)c2)nnc1SCC(=O)N1CCOCC1,-6,i,0,3,-9,5,-11,-37,
CC(C)(C)c1ccc(OCC(=O)N/N=C/c2ccc(N3CCOCC3)cc2)cc1,-3,i,4,-2,13,2,-28,-5,
Cc1[nH]n(-c2ccccc2)c(=S)c1C=NCCCN=Cc1c(C)[nH]n(-c2ccccc2)c1=S,8,i,0,1,11,7,/,6,
COc1cc(CN2CCC(n3nccc3NC(=O)CCCc3ccccc3)CC2)ccc1F,-1,i,6,-6,3,5,15,10,
COc1ccccc1CCNC(=O)C1CCCO1 (centres undefined),3,i,10,7,-14,5,7,-58,
CCc1ccc(N(C(=O)c2snc(C(N)=O)c2N)C(C(=O)NC2CCCC2)c2ccncc2)cc1 (centres undefined),2,i,2,2,/,4,-13,4,
CCN1CCc2c(sc(NC(=S)NC(=O)c3ccccc3)c2C#N)C1,?,i,-30,0,4,71,9,/,PABP polyA inh retest=-7

# Retrieved by compound from above, three records:
SMILES,eIF4H inh,Rce1 inh,MT1-MMP act inh,MT1-MMP act inh RFP,CSC inhib,PABP polyA inh,Yeast UUG start,Env fusion inh,others
COc1ccc(OCC(=O)OC(C)CN2CCOCC2)cc1 (centres undefined),2,i,2,2,-2,0,-10,10,
CCOc1ccc(-n2c(=S)sc3c(=O)n(-c4ccc(F)cc4)c(SCC(=O)O)nc32)cc1,-9,i,-3,7,/,-6,-17,8,
O=C(C1CC(=O)N(C2CCCCC2)C1)N1CCN(c2ccccc2)CC1 (centres undefined),-15,i,3,4,-3,4,-27,-11,
